NPYLR7 agonist – agonists of mosquito NPYLR7 receptor, primary screen, cell-based, Aedes aegypti, calcium fluorescence, mosquito biting behavior. Aedes aegypti neuropeptide Y-like receptor 7 (NPYLR7). HEK293T NPYLR7/Galpha15, GCaMP6s calcium fluorescence. activation, % at 10 µM. actives 0.15% (n = 270,000). AID 1259423, 2018; in the data active = activation above about 40%;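 also: 0% = vehicle and 100% = reference agonist at the receptor; some compounds past the cut are filed as inactive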
NPYLR7 agonist max-min – second read-out of NPYLR7 agonist, no call of its own (marks repeat the call); activation, %; measured here: Max-Min RFU normalised activation; some inactives read as strong as hits;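 span of the calcium signal over five minutes; 0% = vehicle and 100% = native peptide agonist; compound fluorescence can raise it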
* marks the source's active call; other numbers are inactive results; & = joins results of further samples. This is a subset, so the mix of outcomes need not match the whole.

SMILES	NPYLR7 agonist	NPYLR7 agonist max-min
Cc1ccc(Oc2cnn(-c3ccc(Cl)c(Cl)c3)c(=O)c2Nc2ccc(C(=O)NCC3CCCO3)cc2)cc1 (stereo not drawn)	15	20
Nc1cc(-c2ccc(Cl)c(Cl)c2)nn1-c1ccc(C(=O)NCCC2=CCCCC2)cc1	0	-5
CCn1c(C2CCN(C(=O)CCc3cn4ccccc4n3)CC2)nn(C)c1=O	17	13
O=C(O)Cc1cccc(-c2cccc3c2CCNC3)c1	3	2
CCCCOc1ccc(S(=O)(=O)Nc2ccccc2C(=O)NCCc2ccc(F)cc2)cc1	24	14
CCNC(=S)N=Nc1c(O)[nH]c2ccc(C(C)C)cc12	4	2
C=CCn1c(SCc2ccc(C(=O)NCc3ccc(F)cc3)cc2)nnc1-c1ccccc1[N+](=O)[O-]	1	2
Cc1cccc2sc(NC(=O)C(C)C)nc12	-2	-7
O=[N+]([O-])c1cccc2c(Br)[nH]nc12	2&-9	0&-15
CNC(=O)[C@@H]1[C@@H](OC(=O)Nc2ccccc2)C(=O)N(C)C12CCN(C(=O)c1ccco1)CC2	29	35
CN(Cc1cc(C(C)(C)C)n[nH]1)C(=O)c1ccn2nnnc2c1	3	1
CCOc1ccccc1N1CCN(C(=O)c2ccc(CSc3nc(Cl)cc(N4CCN(c5ccccc5Cl)CC4)n3)cc2)CC1	24	24
CCOc1cccc2cc(C(C)Nc3c(C#N)c(=O)n(C)c(=O)n3C)oc12 (stereo not drawn)	2	1
O=C(O)COCC(=O)N1CCN2C(=O)N(Cc3ccccc3)C(=O)[C@H]2C1	-10	-16
COc1ccccc1NC(=O)Nc1ccnn1C1CCN(C(=O)c2cscn2)CC1	7	7
O=S(=O)(Nc1cccc(F)c1)c1cc(Br)ccc1Br	9	1
CCn1cc2nc(OC)c(CNC(=O)Cn3nccc3C)cc2c1O	6	-1
Cc1cc(C)nc(NNS(=O)(=O)c2ccc(Cl)cc2F)n1	5	10
CCc1c(C)nn(-c2ccc(C(=O)Nc3ccc(OC)cc3)cc2)c1C	-3	-11
O=C(Cn1ccc2ccccc21)N1CCN(c2ccc(-c3cccs3)nn2)CC1	1	19
CCc1nc(-c2c(-c3ccccc3)ncn2Cc2csc(C)n2)c(C)[nH]1	8	7
O=S(=O)(Nc1ccc(F)c(Cl)c1)c1ccc(Br)s1	5	2
CC(/C=C1\N=C(c2ccc(Cl)cc2)OC1=O)=C\c1ccccc1	0	-3
Cc1cccc(C2=NOC(C)C(=O)N2Cc2cccc(C#N)c2)c1 (stereo not drawn)	5	3
COC(=O)CCc1c(C)nn(-c2ccc(C(=O)NCc3cccc(F)c3)cc2)c1C	-10	-11
Remaining list, next part:
SMILES	NPYLR7 agonist	NPYLR7 agonist max-min
O=C(NS(=O)(=O)c1ccccc1F)c1ccc2c(c1)OCO2	7	2
Cc1ccc(S(=O)(=O)NC2CCN(C3CCCC3)C2)c(C)c1 (stereo not drawn)	3	3
CC(=O)Nc1c2c(nn1-c1ccc(Oc3ccccc3)cc1)CSC2	-2	3
CCn1c(=NC(=O)c2ccc3ncsc3c2)sc2cccc(F)c21	-1	55
COc1ccc(C2CC(c3ccc(Br)cc3)=NN2C(C)=O)cc1OC (stereo not drawn)	-3	-10
CCCCN(CC(=O)NCC(=O)Nc1ccc(OC)cc1)C(=O)c1cccc([N+](=O)[O-])c1	5	18
CCCC(=O)Nc1ccccc1-n1nc(C)cc1C	1	2
NC(=O)c1nc(-c2ccco2)nc2c1[nH]c(=O)n2-c1ccccc1	14	10
CC(C)(C)CN1CCN(CC#Cc2ccccc2)CC1CCO (stereo not drawn)	4	0
COc1cc(C(=O)Nc2cc(C3CC3)nn2-c2nc(C)c(C)c(=O)[nH]2)cc(OC)c1OC	11	11
COc1ccc(NC(=O)Cn2nc(C(F)(F)F)c(Cl)c2C)c(OC)c1	8	7
O=C(c1cn(C(c2ccccc2)c2ccccc2)nn1)N1CCC(c2ccccc2Cl)C1 (stereo not drawn)	13	8
O=C(COCc1ccccc1)N1CCN(CC(OCc2ccc(C(F)(F)F)cc2)c2ccc(Cl)cc2)CC1 (stereo not drawn)	0	-2
COc1cccc(-c2cnnc(N3CCC(OCc4ccccc4)CC3)n2)c1	3&-1	2&-2
CC(Cn1cncn1)NC(=O)c1cn(CCN2CCCCC2)nn1 (stereo not drawn)	3	2
CC(=O)NC(CC(=O)N1CCN(C)c2ccccc2C1)c1ccccc1 (stereo not drawn)	7	1
CCCCCCCC/C=C\CCCCCCCC(=O)NCCO	2	-18
Cc1cc(C)n(CC(=O)OC(C)C(N)=O)n1 (stereo not drawn)	-2	-5
O=C(c1ccccc1OC(F)(F)C(F)F)N1CCc2c(nc[nH]c2=O)C1	4	-1
CCOC(=O)c1cccnc1N1CCN(Cc2cccc3nsnc23)CC1	4	2
Cc1ccc(C)c(OCCCC(C)(C)C(=O)N2CCN(C(=O)c3ccco3)CC2)c1	-8	-13
Cc1nn(C)c(C)c1CN(Cc1cccc2c1OCO2)C1CC1	-3	-7
CN1C2C=C3C(C#N)C(=N)C(C#N)(C#N)C(c4ccccc4F)C3C1CC2 (stereo not drawn)	1	1
CN1C[C@@H]2C[C@@H](c3ccc(C4CCCCC4)s3)N3CCC[C@@]23C1=O	5	10
CCCSc1nc2c(c(=O)n1-c1ccc(OC)c(OC)c1)SCC2	-7	-9
The listing continues:
SMILES	NPYLR7 agonist	NPYLR7 agonist max-min
CC(=O)Nc1ccc(C(=O)N2CCN(C(=O)C3CC3c3cccs3)CC2)cc1 (stereo not drawn)	2	0
O=C(c1cccs1)N(Cc1nccn1Cc1ccc(F)c(F)c1)C1CCCCC1	15	26
CCCCSc1nnc(NC(=O)C2CC2)s1	27	37
O=C(NCC(F)(F)F)c1cc(COc2ccc(F)c(F)c2)on1	-2&16	-5&7
C=CCNC(=O)N[C@H]1[C@H](O)[C@@H]2O[C@H]1c1ccccc12	0	15
COc1cccc(OC)c1OCCCOc1ccc([N+](=O)[O-])cc1	-5	10
CC(C)NC(=O)N1CCC(C(NC(=O)c2cccs2)C(=O)N2CCCC2)CC1 (stereo not drawn)	21	17
Cc1nc(N2CCOCC2)cc(N2CCN(C(=O)c3cnn(-c4ccccc4)n3)CC2)n1	-1	-4
Cc1cccc(Cn2cnc3c(cnn3CCNC(=O)c3ccc(S(=O)(=O)N(C)C)cc3)c2=O)c1	-3	-7
FC(F)(F)c1cnc(NCc2ncc(-c3ccccc3)o2)c(Cl)c1	4	3
Cc1ccc(C(=O)c2c(C)c(C#N)c(=O)n(C3CCS(=O)(=O)C3)c2O)cc1 (stereo not drawn)	2	44
c1ccc(-c2nc3c(c(NCCc4cnc[nH]4)n2)CCNC3)cc1	-5	31
COc1ccc(S(=O)(=O)N2CCC3(CC2)NC(=O)c2cccc(C)c2N3)cc1	3	3
CC(C)(C)NS(=O)(=O)c1cccc(NS(=O)(=O)c2cc(Cl)sc2Cl)c1	0	-4
COC(=O)CNC(c1ccccc1)c1cc(Br)ccc1N (stereo not drawn)	-2	-4
O=C(NC1CC(=O)N(Cc2ccccc2Cl)C1)c1cc2ccccc2o1 (stereo not drawn)	12	3
COc1ccc(C(=O)NC2CC2)c(OC2CCN(Cc3cccc(SC)c3)CC2)c1	4	0
COc1ccc(SCCC(=O)O)cc1OC	9	4
Cc1ccc(-c2noc(CN3CCCc4ccccc43)n2)cc1	0	6
O=S(=O)(NCCc1csc(-c2ccncc2)n1)NCc1ccccc1	1	10
Cc1ccc(CCN=c2c([N+](=O)[O-])nn(-c3ccc4c(c3)OCCO4)n2O)cc1	-6	-10
CCSc1nnc(NC(=O)/C=C/c2cccc3ccccc23)s1	37	18
CC(NC(=O)N1CCN(S(=O)(=O)c2cccc(C(F)(F)F)c2)CC1)c1ccc2c(c1)OCCO2 (stereo not drawn)	-4	-6
Cc1ccc(C(=O)N2CC(C)(C)SC23C(=O)Nc2ccc(Cl)cc23)cc1 (stereo not drawn)	10	8
CCc1nc(-c2ccccc2)nc(N2CCN(C(=O)C3CC3)CC2)c1Cc1c(F)cccc1Cl	15	13

Copied from the results shown (16 entries):
SMILES	NPYLR7 agonist	NPYLR7 agonist max-min
CCCCSc1nnc(NC(=O)C2CC2)s1	27	37
O=C(NCC(F)(F)F)c1cc(COc2ccc(F)c(F)c2)on1	-2&16	-5&7
C=CCNC(=O)N[C@H]1[C@H](O)[C@@H]2O[C@H]1c1ccccc12	0	15
COc1cccc(OC)c1OCCCOc1ccc([N+](=O)[O-])cc1	-5	10
CC(C)NC(=O)N1CCC(C(NC(=O)c2cccs2)C(=O)N2CCCC2)CC1 (stereo not drawn)	21	17
Cc1nc(N2CCOCC2)cc(N2CCN(C(=O)c3cnn(-c4ccccc4)n3)CC2)n1	-1	-4
Cc1cccc(Cn2cnc3c(cnn3CCNC(=O)c3ccc(S(=O)(=O)N(C)C)cc3)c2=O)c1	-3	-7
FC(F)(F)c1cnc(NCc2ncc(-c3ccccc3)o2)c(Cl)c1	4	3
Cc1ccc(C(=O)c2c(C)c(C#N)c(=O)n(C3CCS(=O)(=O)C3)c2O)cc1 (stereo not drawn)	2	44
c1ccc(-c2nc3c(c(NCCc4cnc[nH]4)n2)CCNC3)cc1	-5	31
COc1ccc(S(=O)(=O)N2CCC3(CC2)NC(=O)c2cccc(C)c2N3)cc1	3	3
CC(C)(C)NS(=O)(=O)c1cccc(NS(=O)(=O)c2cc(Cl)sc2Cl)c1	0	-4
COC(=O)CNC(c1ccccc1)c1cc(Br)ccc1N (stereo not drawn)	-2	-4
O=C(NC1CC(=O)N(Cc2ccccc2Cl)C1)c1cc2ccccc2o1 (stereo not drawn)	12	3
COc1ccc(C(=O)NC2CC2)c(OC2CCN(Cc3cccc(SC)c3)CC2)c1	4	0
COc1ccc(SCCC(=O)O)cc1OC	9	4

Continued:
SMILES	NPYLR7 agonist	NPYLR7 agonist max-min
COC(=O)C1=C(C)N(C)C(=S)NC1c1ccc(Cl)cc1 (stereo not drawn)	4	6
Cc1ccc2nc(-c3ccc(N4C(=O)c5cccc(F)c5C4=O)cc3)oc2c1	-8	-15
O=c1c2cc(Cl)ccc2ncn1CC(O)COCc1ccc(Cl)cc1 (stereo not drawn)	5	-1
CCCC1CCC(c2nc(-c3ccc(OC(F)F)cc3)no2)CC1 (stereo not drawn)	-5	-11
O=C(O)CN1C(=O)C(=Cc2cccnc2)SC1=S	-5	-7
CC(C)Cc1noc(CNc2ccc(S(=O)(=O)C3CCCC3)cc2)n1	10	9
CCOC(=O)C1(Cc2ccccc2)CCCN(C(=O)Nc2ccc(SC)cc2)C1 (stereo not drawn)	-5	2
COc1cccc2sc(=NC(=O)c3cc(Cl)sc3Cl)n(C)c12	0	4
CCCCCNc1nc2c(-c3ccc(C)cc3)nnn2c2ccccc12	8	6
CCOC(=O)C1(CCCc2ccccc2)CCN(C(=O)c2cc(F)ccc2F)CC1	9	10
CCOC(=O)C1=C(C)NC2=C(C(=O)CC(C)(C)C2)C1c1cc([N+](=O)[O-])c(C)s1 (stereo not drawn)	10	1
CCCc1c(C(=O)NCc2ccncc2)cnn1-c1ccc(C)cc1	6	17
CN(C)c1ncc2c(n1)CCCC2NC1CCN(c2ccccc2F)CC1 (stereo not drawn)	16	4
COc1ccc(NC(=O)c2c(C)c(C)c(C)n2Cc2ccccc2F)cc1OC	-6	-5
c1ccc(-c2ncn(CC(c3ccco3)N3CCCC3)c2-c2ncc[nH]2)cc1 (stereo not drawn)	0	0
COCCN(Cc1nc(C(=O)N2CCN(C/C=C/c3ccccc3)CC2)cs1)C(=O)Nc1cccc(Cl)c1	6	18
CCOCCCn1c(SCc2ccc(C(=O)OC)cc2OC)nc2cc(C(=O)OCC)ccc21	1	-5
COCC(=O)N1CCSC12C(=O)N(Cc1cccc(OC)c1)c1ccc(Cl)cc12 (stereo not drawn)	6	7
O=C(O)c1ccc(Cl)s1	3	8
CNc1cnc(-c2cccc3cccnc23)cn1	1	-1
COc1ccccc1N1CCN(C(=O)c2cc(-c3ccc(Cl)cc3)n(-c3cccc(F)c3)c2C)CC1	-4	4
C=CCN(CC(=O)N1CCc2sccc2C1c1ccc(OC)cc1)C(=O)C(C)(C)CCl (stereo not drawn)	-1	-8
NC(=O)C1CN(C(=O)CC2(Cc3nc4ccccc4s3)CCCCC2)CCO1 (stereo not drawn)	6	4
CC(=O)N1CCC(NC(=O)CN2CCCc3c(F)ccc(C)c32)CC1	-2	-4
CCOC(=O)c1nn(-c2ccc(F)cc2)c(=O)cc1OCc1ccccc1F	11	5
(list continues)
SMILES	NPYLR7 agonist	NPYLR7 agonist max-min
Brc1cnn(Cc2nnc(-c3ccco3)o2)c1	-1	-2
CC(C(=O)N1CCc2c(nc(-c3ccccn3)[nH]c2=O)C1)N1CCCC1 (stereo not drawn)	7	6
CCOc1ccc(C(c2c(O)cc(C)n(CCOC)c2=O)N2CCN(c3ccccc3)CC2)cc1 (stereo not drawn)	8	1
CC1(c2ccccc2)COC2(OC1)C(=O)N(CN1CCN(Cc3ccccc3)CC1)c1ccccc12 (stereo not drawn)	-7	-12
CN(C)C=NC1=NN(c2cccc(C(F)(F)F)c2)CC1	-5	-5
Cc1csc2nc(O)c(C(=O)NCc3ccncc3)c(=O)n12	-2	29
CC1NCCN(c2ccc(F)cc2F)C1=O (stereo not drawn)	-3	-2
CCC(C)N(CC(=O)N(CCc1ccc(OC)c(OC)c1)Cc1ccco1)S(=O)(=O)c1ccc([N+](=O)[O-])cc1 (stereo not drawn)	-5	9
CCOc1cccc(C=C2Oc3cc(O)ccc3C2=O)c1OC	70*	89*
Cc1nc(C)n(CC(O)COc2ccc3ccccc3c2)n1 (stereo not drawn)	4	9
OCC1(Cn2cnc(-c3ccccc3)c2-c2ccc3c(c2)OCCO3)CCOCC1	17	8
N#CC1(c2nc3ccccc3[nH]2)Cc2ccccc2N2CCCCC21 (stereo not drawn)	5	5
Cc1cc(CC(C)NC(=O)C(=O)c2ccco2)n[nH]1 (stereo not drawn)	13	13
COc1cccc(Cn2cccc(S(=O)(=O)N3CCC(C)CC3)c2=O)c1	-9	-9
CCOCCCN(CC(=O)N1CCc2sccc2C1c1ccccc1)C(=O)Cc1ccc(OC)cc1 (stereo not drawn)	29	29
